High-throughput results from PubChem BioAssay.
OXTR potentiator: potentiators of human oxytocin receptor; P30559; CHO-OTR cells, Fluo-8 calcium fluorescence, potentiator mode; 0% = oxytocin EC15, 100% = EC100; activation, % at 3 µM; hit rate 0.061% among 320,000; AID 2445;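 active means activation above that plate's cutoff, the mean activation of tested compounds plus 3 SD, cut at about 6.6% in these data, passing the limit was not always enough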;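 further: 100% uses oxytocin at 75 nM as the full agonist control; some results filed as inactive read as strong as hits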
Target sequence (P30559 whole entry, looked up): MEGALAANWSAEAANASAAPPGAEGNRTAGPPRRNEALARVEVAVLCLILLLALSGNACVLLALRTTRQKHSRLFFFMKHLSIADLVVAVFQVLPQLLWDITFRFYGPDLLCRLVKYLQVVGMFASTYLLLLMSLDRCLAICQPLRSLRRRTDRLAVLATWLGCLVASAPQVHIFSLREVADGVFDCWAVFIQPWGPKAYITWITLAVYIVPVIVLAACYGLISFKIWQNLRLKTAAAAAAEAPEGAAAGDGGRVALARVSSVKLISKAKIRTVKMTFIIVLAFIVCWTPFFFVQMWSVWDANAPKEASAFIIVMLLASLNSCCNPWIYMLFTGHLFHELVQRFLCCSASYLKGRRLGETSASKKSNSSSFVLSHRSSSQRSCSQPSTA
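Replication – single well per compound, singlicate · Assay system – CHO cell line stably expressing human OTR · Timing – 6 min pre-incubation, 100 s read · Measure – normalized max/min fluorescence ratio, % activation · Doses – 3.0 µM, one dose · Detection – Fluo-8 calcium dye fluorescence · Probe or stimulus – oxytocin near EC15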
CHO parental Ca: counter-screen for OX1R antagonists: effect in parental CHO cells. inhibition, % at 5.6 µM. hit rate 0.63% among 330,000. parental CHO-K1, ATP-induced calcium, Fluo-8 fluorescence;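 active means inhibition above that plate's mean sample inhibition plus 3 SD, cut at about 26% in these data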;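 further: 0% = ATP-challenged DMSO wells and 100% = DMSO wells without ATP; some compounds past the cut are filed as inactive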
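material = parental CHO cells | also added = ATP as calcium-mobilizing challenge | dosing = single point at 5.6 µM | detection = intracellular calcium via Fluo-8 no-wash fluorescent dye | read-out = % inhibition | benchmarks = low control ATP plus DMSO, high control DMSO only | repeats = one well per compound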
TAAR1 antag: human TAAR1 antagonism; hit rate 1.5% among 360,000; CHO RD-HGA16 TAAR1, Fluo-8 calcium fluorescence, antagonist; AID 624466; inhibition, % at 3 µM; Q96RJ0;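 active means inhibition above a per-plate cutoff, the mean inhibition of test compounds on that plate plus 3 SD, cut at about 49% in these data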;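 further: 0% = DMSO plus EC80 beta-PEA response and 100% = DMSO alone without agonist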
Target sequence (Q96RJ0 whole entry, looked up): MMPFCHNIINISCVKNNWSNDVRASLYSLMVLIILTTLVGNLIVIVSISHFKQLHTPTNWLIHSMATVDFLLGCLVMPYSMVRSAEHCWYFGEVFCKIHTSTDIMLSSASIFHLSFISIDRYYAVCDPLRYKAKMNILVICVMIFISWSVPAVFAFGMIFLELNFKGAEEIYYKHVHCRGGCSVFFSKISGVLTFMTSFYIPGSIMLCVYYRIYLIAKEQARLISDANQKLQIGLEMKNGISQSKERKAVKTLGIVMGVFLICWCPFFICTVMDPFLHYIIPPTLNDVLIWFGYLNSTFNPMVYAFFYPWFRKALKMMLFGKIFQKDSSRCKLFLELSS
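Material: CHO RD-HGA16 cells bearing hTAAR1; compound dosing: one-point dosing, 3 µM nominal final; schedule: dye loading 75 min at 37 °C, then 30 min room temperature; measured by: calcium fluorescence with Fluo-8; control set: vehicle and agonist controls; replication: n of 1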
TAAR1 agonist: human TAAR1 agonism; Q96RJ0; CHO RD-HGA16 TAAR1, Fluo-8 calcium fluorescence; vehicle wells 0%, saturating PEA agonist 100%; activation, % at 3 µM; hit rate 0.99% among 360,000;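 active means activation above the mean activation of all test compounds in the run plus 3 SD, cut at about 38% in these data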
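Test system: RD-HGA16 (CHO) cells co-expressing Gα16 and hTAAR1; dosing: one-point dosing at 3 µM (nominal); timing: 17-24 h seeding, 75 min 37 °C dye, 30 min RT; signal: kinetic Fluo-8 calcium fluorescence; read-out basis: % activation relative to PEA EC100 response; controls: DMSO and PEA EC100; replicates: n 1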
An asterisk follows results filed as active; . = no result given; & = joins results of further samples. Only part of the results is shown; the hit share may differ from the screen's.

Sample of the layout:
Screens in order: TAAR1 antag | OXTR potentiator | CHO parental Ca | TAAR1 agonist
- O=c1[nH]c2ccccc2c2ccccc12
 : 5.8 | -1.9 | -0.7 | 1.4
- CCOC(=O)[C@H](CCc1ccccc1)N[C@@H](C)C(=O)N1C(C(=O)O)C[C@@H]2CCC[C@@H]21 (stereo partly drawn)
 : -19.2 | 4.3 | -8.4 | 5.5
- COCCCOc1ccnc(CS(=O)c2nc3ccccc3[nH]2)c1C (stereo not drawn)
 : -4.3 | -5.3&-6.9 | -11.1&-16.1 | 3.2
- Nc1nc(N)c2nc(-c3ccccc3)c(N)nc2n1
 : -21.7 | -1.5 | -5.3 | 2.8
- CC12CCC(=O)C=C1CCC1C2C(O)CC2(C)C1CCC2(O)C(=O)CO (stereo not drawn)
 : -14.4 | 2.9 | -0.2 | 1.9
- NC(=O)c1cccnc1
 : -19.1 | -7.9 | -5.8 | 0.6
- CC(C)C[C@H]1C(=O)N2CCC[C@H]2[C@]2(O)O[C@](NC(=O)[C@@H]3C=C4c5cccc6[nH]c(Br)c(c56)CC4N(C)C3)(C(C)C)C(=O)N12 (stereo partly drawn)
 : 28.9 | -21.8 | -15.8 | 2.1
- NCCS(=O)(=O)O
 : 7.1 | -4.2 | 4.9 | 2.9
- CC(=O)O[C@]1(C(C)=O)CC[C@H]2[C@@H]3C[C@H](C)C4=CC(=O)CC[C@]4(C)[C@H]3CC[C@@]21C
 : -25.1&-5.7 | -2.5&-7.9 | -20.6&-19.5 | -3.0&0.1
- CC(=O)OCC(=O)[C@@]1(O)CCC2C3CCC4=CC(=O)CCC4(C)C3C(=O)CC21C (stereo partly drawn)
 : -7.6 | . | . | 5.4
- O=c1[nH]c(=O)n([C@H]2C[C@H](O)[C@@H](CO)O2)cc1I
 : 5.8 | 0.5 | -1.5 | -0.1
- CC1=C(/C=C/C(C)=C/C=C/C(C)=C/C(=O)O)C(C)(C)CCC1
 : -11.6 | -2.8 | 1.2 | 1.3
- NS(=O)(=O)c1cc2c(cc1Cl)NCNS2(=O)=O
 : -18.4 | 0.5 | 0.4 | 6.5
- CC(=O)OCC(=O)[C@@]12OC(C)(C)O[C@@H]1CC1C3C[C@H](F)C4=CC(=O)C=CC4(C)[C@@]3(F)C(O)CC12C (stereo partly drawn)
 : -14.5 | -2.8 | 0.7 | 2.1

Main list, from the first entry:
Screens in order: TAAR1 antag | OXTR potentiator | CHO parental Ca | TAAR1 agonist
- O=c1[nH]c2ccccc2c2ccccc12
 : 5.8 | -1.9 | -0.7 | 1.4
- CCOC(=O)[C@H](CCc1ccccc1)N[C@@H](C)C(=O)N1C(C(=O)O)C[C@@H]2CCC[C@@H]21 (stereo partly drawn)
 : -19.2 | 4.3 | -8.4 | 5.5
- COCCCOc1ccnc(CS(=O)c2nc3ccccc3[nH]2)c1C (stereo not drawn)
 : -4.3 | -5.3&-6.9 | -11.1&-16.1 | 3.2
- Nc1nc(N)c2nc(-c3ccccc3)c(N)nc2n1
 : -21.7 | -1.5 | -5.3 | 2.8
- CC12CCC(=O)C=C1CCC1C2C(O)CC2(C)C1CCC2(O)C(=O)CO (stereo not drawn)
 : -14.4 | 2.9 | -0.2 | 1.9
- NC(=O)c1cccnc1
 : -19.1 | -7.9 | -5.8 | 0.6
- CC(C)C[C@H]1C(=O)N2CCC[C@H]2[C@]2(O)O[C@](NC(=O)[C@@H]3C=C4c5cccc6[nH]c(Br)c(c56)CC4N(C)C3)(C(C)C)C(=O)N12 (stereo partly drawn)
 : 28.9 | -21.8 | -15.8 | 2.1
- NCCS(=O)(=O)O
 : 7.1 | -4.2 | 4.9 | 2.9
- CC(=O)O[C@]1(C(C)=O)CC[C@H]2[C@@H]3C[C@H](C)C4=CC(=O)CC[C@]4(C)[C@H]3CC[C@@]21C
 : -25.1&-5.7 | -2.5&-7.9 | -20.6&-19.5 | -3.0&0.1
- CC(=O)OCC(=O)[C@@]1(O)CCC2C3CCC4=CC(=O)CCC4(C)C3C(=O)CC21C (stereo partly drawn)
 : -7.6 | . | . | 5.4
- O=c1[nH]c(=O)n([C@H]2C[C@H](O)[C@@H](CO)O2)cc1I
 : 5.8 | 0.5 | -1.5 | -0.1
- CC1=C(/C=C/C(C)=C/C=C/C(C)=C/C(=O)O)C(C)(C)CCC1
 : -11.6 | -2.8 | 1.2 | 1.3
- NS(=O)(=O)c1cc2c(cc1Cl)NCNS2(=O)=O
 : -18.4 | 0.5 | 0.4 | 6.5
- CC(=O)OCC(=O)[C@@]12OC(C)(C)O[C@@H]1CC1C3C[C@H](F)C4=CC(=O)C=CC4(C)[C@@]3(F)C(O)CC12C (stereo partly drawn)
 : -14.5 | -2.8 | 0.7 | 2.1
- Cc1cc(C2CCCCC2)n(O)c(=O)c1
 : -0.4 | 0.3 | -0.2 | 1.8

Screens in order: TAAR1 antag | OXTR potentiator | CHO parental Ca | TAAR1 agonist
- C[C@](N)(Cc1ccc(O)c(O)c1)C(=O)O
 : -14.7 | . | . | 0.6
- CCN(CC)C(=O)N1CCN(C)CC1
 : -10.8 | 3.6 | 6.4 | 0.2
- CC[C@H]1OC(=O)[C@H](C)[C@@H](O[C@H]2C[C@@](C)(OC)[C@@H](O)[C@H](C)O2)[C@H](C)[C@@H](O[C@@H]2O[C@H](C)C[C@H](N(C)C)[C@H]2O)[C@](C)(OC)C[C@@H](C)C(=O)[C@H](C)[C@@H](O)[C@]1(C)O
 : -12.5 | -1.4 | -13.2 | 1.5
- C[C@H](CCC(=O)O)[C@H]1CC[C@H]2[C@@H]3[C@H](O)C[C@@H]4C[C@H](O)CC[C@]4(C)[C@H]3C[C@H](O)[C@]12C
 : 0.0&-20.2&10.5 | -14.7&-3.4&-2.4 | 6.3&3.4&-3.4 | 1.0&8.3&3.3
- Cc1ccc(C)c(OCCCC(C)(C)C(=O)O)c1
 : 7.0 | -4.1 | 8.7 | -0.1
- NC(=O)N1c2ccccc2C=Cc2ccccc21
 : -1.1&0.7 | 2.3&-0.5 | -4.7&1.6 | 0.9&0.6
- CC(=O)Oc1ccccc1C(=O)O
 : -15.9 | -0.1 | -3.8 | 0.5
- C[C@H]1C[C@H]2[C@@H]3CCC4=CC(=O)C=C[C@]4(C)[C@@]3(Cl)[C@@H](O)C[C@]2(C)[C@@]1(O)C(=O)CO
 : -3.1 | -4.9 | -1.9 | 1.4
- CCN(CC)CCOc1ccc(/C(=C(/Cl)c2ccccc2)c2ccccc2)cc1
 : 12.1 | -3.0&-9.3 | -5.3&-1.6 | 16.4
- C1CCN2C[C@@H]3C[C@@H](CN4CCCC[C@@H]34)[C@H]2C1
 : 5.8 | . | . | -0.2
- CN1CCCC(CN2c3ccccc3Sc3ccccc32)C1 (stereo not drawn)
 : 3.9 | -9.9 | 7.8 | 18.2
- CCn1cc(C(=O)O)c(=O)c2cc(F)c(N3CCNCC3)cc21
 : . | -5.6 | -0.3 | .
- CC(C)[C@H](N)C(=O)OCCOCn1cnc2c(=O)[nH]c(N)nc21
 : -9.1&-2.0 | -4.8&-7.9 | 0.8&-9.2 | 1.6&5.2
- CC(CCC(=O)O)C1CCC2C3C(O)CC4CC(O)CCC4(C)C3CC(O)C12C (stereo not drawn)
 : 4.6&-10.3 | -5.9 | -1.4 | 0.3&0.5
- CCN(CC)CCNC(=O)c1cc(S(C)(=O)=O)ccc1OC
 : -10.7 | 0.3 | 0.9 | 0.4

The closing 2 compounds of the section before are carried over, then new ones follow.
Screens in order: TAAR1 antag | OXTR potentiator | CHO parental Ca | TAAR1 agonist
- CC(CCC(=O)O)C1CCC2C3C(O)CC4CC(O)CCC4(C)C3CC(O)C12C (stereo not drawn)
 : 4.6&-10.3 | -5.9 | -1.4 | 0.3&0.5
- CCN(CC)CCNC(=O)c1cc(S(C)(=O)=O)ccc1OC
 : -10.7 | 0.3 | 0.9 | 0.4
- Cc1c(O)cccc1C(=O)N[C@@H](CSc1ccccc1)[C@H](O)CN1C[C@H]2CCCC[C@H]2C[C@H]1C(=O)NC(C)(C)C
 : -28.3&-30.1 | -8.0&-12.2 | -37.1&-23.6 | 5.2&4.1
- NC[C@H]1O[C@H](O[C@H]2[C@H](O)[C@@H](O[C@H]3O[C@H](CO)[C@@H](O)[C@H](N)[C@H]3O)[C@H](N)C[C@@H]2N)[C@H](N)C[C@@H]1O
 : . | -3.1 | -3.6 | .
- CCN1CCCC1CNC(=O)c1cc(S(N)(=O)=O)ccc1OC (stereo not drawn)
 : 10.6 | 0.6 | -7.7 | 1.5
- COc1ccc2c3c1O[C@H]1C[C@@H](O)C=C[C@@]31CCN(C)C2
 : 10.7 | -5.0 | -8.1 | 0.6
- Cc1cn([C@H]2C[C@H](N=[N+]=[N-])[C@@H](CO)O2)c(=O)[nH]c1=O
 : 0.7 | -2.6 | 5.0 | 0.6
- CNS(=O)(=O)Cc1ccc2[nH]cc(CCN(C)C)c2c1
 : 0.7&-17.1 | 3.2&-6.0 | -5.3&-2.1 | 1.2&0.7
- O=C(O)c1cc(=O)c2c(OCC(O)COc3cccc4oc(C(=O)O)cc(=O)c34)cccc2o1
 : -9.7 | . | . | 0.7
- NC(N)=NC(=O)c1nc(Cl)c(N)nc1N
 : -8.6&-7.2&17.1 | -5.1&-4.5&-2.4 | 3.5&-4.5&-5.3 | 1.0&0.1&10.1
- Cc1cnc(NC(=O)C2C(=O)c3ccccc3S(=O)(=O)N2C)s1 (stereo not drawn)
 : -14.9 | -7.0 | -1.5 | 0.8
- CC(=O)[C@@]1(O)CC[C@H]2[C@@H]3CCC4=CC(=O)CC[C@]4(C)[C@H]3CC[C@@]21C
 : -13.7 | -3.1 | -4.3 | 2.4
- CO[C@@]12[C@H](COC(N)=O)C3=C(C(=O)C(C)=C(N)C3=O)N1C[C@@H]1N[C@@H]12
 : -0.6 | 10.0 | -8.2 | 0.6
- O=C(O)C[C@@H](O)C(=O)O
 : -16.7 | 0.9 | -2.1 | 10.0
- CN1CCCC1c1cccnc1 (stereo not drawn)
 : -27.3 | -3.4 | -1.5 | 2.7
- CC(=O)OCC(=O)C1(O)CCC2C3CCC4=CC(=O)CCC4(C)C3(F)C(O)CC21C (stereo not drawn)
 : -6.1 | . | . | 0.1
- CCOc1cc(N)c(Cl)cc1C(=O)NCC1CN(Cc2ccc(F)cc2)CCO1 (stereo not drawn)
 : -17.7 | 1.9 | -14.5 | 1.0

Screens in order: TAAR1 antag | OXTR potentiator | CHO parental Ca | TAAR1 agonist
- Cc1cnc(NC(=O)C2=C(O)c3ccccc3S(=O)(=O)N2C)s1
 : -15.2&-13.8&-11.3&-6.0 | -5.2&-6.0&-5.8&-1.2 | -6.5&-1.8&-6.7&0.3 | 1.1&-0.5&-0.3&0.2
- N=C(N)c1ccc(OCCCCCOc2ccc(C(=N)N)cc2)cc1
 : 7.2 | -5.7 | -6.3 | -0.1
- CS(=O)(=O)c1ccc(C2=C(c3ccccc3)C(=O)OC2)cc1
 : -12.2 | -3.8 | 5.3 | 2.3
- CCOC(=O)[C@@H](CCc1ccccc1)N[C@H](C)C(=O)N1[C@H](C(=O)O)C[C@@H]2CCC[C@@H]21
 : -7.8 | 3.5 | -6.6 | 1.5
- CC(CN1c2ccccc2Sc2ccccc21)N(C)C (stereo not drawn)
 : 10.4 | -3.0 | -12.3 | 2.6
- CN(C)CCN(Cc1ccccc1)c1ccccn1
 : -16.7 | -8.0 | -10.1 | 2.5
